Source: PubChem (several laboratories)
Bfl-1 A1 inh – inhibitors of the anti-apoptotic protein A1, read as caspase activation; MEF A1-2A-BIM cells, Caspase-Glo 3/7 luminescence, 3 h; percent of clofoctol response, vehicle zero; caspase activation, % (no concentration beside the values); 0.066% of 330,000 active;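 active means over half of replicate activation scores above 10%, or exactly half above 10 with the replicate mean above 10; inconclusive means replicate mean below 10 yet half the replicates above 10; inactive means over half of replicates below 10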;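 further: wells of about 30 µL received 50 nL stock; many hits fall short of the cut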
LANA-H2A inh – blocks KSHV LANA binding to histone H2A/H2B. Q9QR71. cell-free LANA-H2A/H2B peptide, fluorescence polarization. inhibition, % (concentration not given with the values). 0.6% of 320,000 active; in the data active means inhibition mostly above about 10%, no sharp cut-off; inactive means mostly below about 6.7%;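 further: stock transfer was 7.5 nL into about 10 µL; 0% = median of vehicle wells and 100% = median of positive control wells; one replicate is shown; the record names a cut of 25% in any replicate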
Vif TR-FRET – inhibitors of Vif binding to APOBEC3G peptide, primary screen, biochemical, TR-FRET, GST-Vif 1-94, biotin-A3G peptide, dose response retest (AID 1117319) | TR-FRET GST-Vif / biotin-A3G peptide binding; higher % means a stronger effect; test concentration not given here; strong numbers were not always called active | inhibition, %; hits with a dose series show IC50 in µM | 0.57% of 260,000 active;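 active means above the screen mean plus three standard deviations and confirmed in dose response; inconclusive means results disagree or hit not tested in dose response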;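 further: Vif residues 1-94 fused to GST binding biotinylated APOBEC3G peptide 110-148; 0% = full assay without inhibitor and 100% = GST in place of GST-Vif; retest series ran down from 100 µM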
Calb FLC – affects C. albicans growth with fluconazole | C. albicans CaCi-2 (fluconazole-resistant clinical isolate) + fluconazole, Alamar Blue growth, 48 h | growth inhibition, % (concentration not given with the values) | 0.57% of 300,000 active;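 active means most replicates above 75%; inconclusive means exactly half above 75%; inactive means most below 75%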;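 further: all wells also contain fluconazole at 8 µg/ml as a sub-toxic cotreatment; 0% = median of DMSO wells and 100% = median of geldanamycin control wells; wells of about 8 µL received 7.5 nL stock; the first replicate is given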
MLL AF4-AF9 inh – inhibitors of human MLL-AF4/AF9 interaction; inhibition, % at 10 µM; 0.47% of 350,000 active; AID 651704; P42568; AlphaScreen, biotin-AF4 peptide binding to FLAG-AF9;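 active means every replicate reaching a set inhibition limit, whatever the replicate mean, cut at about 25% in these data; inconclusive means mean inhibition reaches that limit but some replicates miss it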;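 further: 0% = plate neutral control median and 100% = total signal loss; the record names both 10 and 1 µM as test concentration; the first replicate is given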
Target sequence (P42568 whole entry, looked up): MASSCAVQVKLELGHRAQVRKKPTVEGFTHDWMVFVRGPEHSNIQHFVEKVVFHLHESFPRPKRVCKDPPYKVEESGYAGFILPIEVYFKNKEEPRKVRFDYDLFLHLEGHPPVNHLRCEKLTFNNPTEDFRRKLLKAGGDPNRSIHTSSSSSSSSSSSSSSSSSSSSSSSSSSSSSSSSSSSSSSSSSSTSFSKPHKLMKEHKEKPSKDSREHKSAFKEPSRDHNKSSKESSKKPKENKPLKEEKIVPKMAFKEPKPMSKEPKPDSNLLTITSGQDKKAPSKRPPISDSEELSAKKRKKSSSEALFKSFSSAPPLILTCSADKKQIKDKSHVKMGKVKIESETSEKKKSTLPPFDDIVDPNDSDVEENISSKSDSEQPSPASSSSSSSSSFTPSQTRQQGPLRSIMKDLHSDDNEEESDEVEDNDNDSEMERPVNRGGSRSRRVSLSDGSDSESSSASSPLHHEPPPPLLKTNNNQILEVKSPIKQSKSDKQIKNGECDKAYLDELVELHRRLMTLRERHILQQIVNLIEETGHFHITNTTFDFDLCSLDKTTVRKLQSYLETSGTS
RanGTP-Imp inh – disruptors of Ran-importin-beta complex formation – biochemical, FRET, CFP-Ran, YFP-importin-beta, homogeneous, primary screen. cell-free CFP-Ran/YFP-importin-beta FRET ratio. inhibition, % (no concentration beside the values). 1.1% of 300,000 active. AID 2216;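 active means most replicates above 15%; inconclusive means exactly half above 15%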;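 further: 0% = DMSO wells and 100% = Ran loaded with GDP instead of GTP; wells of about 40 µL received 100 nL stock; the first replicate is given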
Beta cell apopt – blocks beta cell apoptosis | INS-1E cytokine-induced death, ATP luminescence, 48 h; percent of positive-control rescue, neutral wells zero | protection from apoptosis, % (concentration not given with the values) | 0.8% of 300,000 active | AID 435005;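 active means all replicates at 75% or more, or half of them and the mean; inconclusive means half reach 75% but not the mean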;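 further: 0% = cytokine-treated negative control wells and 100% = positive control rescue; higher means more ATP so stronger rescue from cytokine killing; wells of about 40 µL received 100 nL stock; the first replicate is given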
T cruzi inh – T. cruzi replication inhibition. T. cruzi beta-gal in NIH3T3, luminescence, 90 h. inhibition, % (no concentration beside the values). 1.4% of 300,000 active;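 active means mean inhibition across valid replicates above about 55%, limit read from the data; inconclusive means mean below that limit but half or more replicates reach it; inactive means mean below it, under half of replicates reach it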;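 further: signal also drops with host cell toxicity which is not excluded here; 0% = plate median of DMSO wells and 100% = zero luminescence signal; higher percent means less beta-gal luminescence so fewer parasites; stock transfer was 50 nL into about 50 µL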
* = called active by the depositor; ? = inconclusive; · = no result given; & = joins results of further samples. This is a random part of the collection (roughly 4.3% active in at least one column).

SMILES	Bfl-1 A1 inh	LANA-H2A inh	Vif TR-FRET	Calb FLC	MLL AF4-AF9 inh	RanGTP-Imp inh	Beta cell apopt	T cruzi inh
COC(=O)c1ccc2c(c1)SC1=C(CCCC1=O)N2	0.7	1.7	20%	7	·	-2.8	4	-9
CC(C)(C)c1ccc(OCC(=O)NNC(=O)c2cccnc2)cc1	1.1	-0.5	2%	-3	-0.9	-1.3	-1	-10
COc1ccc(NS(=O)(=O)c2ccc(SC)cc2)cc1	0.5	8.6	1%	-1	-3.6	3.6	1	4
CC(C)C(C)NC(=O)COC(=O)/C=C/c1ccc(S(=O)(=O)N2CCc3ccccc32)cc1 (stereo not given)	0.3	-2.0	·	-10	1.4	?	-3	7
COc1cccc(-n2c(Cn3nc(C(F)(F)F)cc3C)n[nH]c2=S)c1	0.9	-0.5	1%	11	0.1	-4.6	-2	-12
CNC(=O)C1(CC(C)C)C=CCN1C(C)=O (stereo not given)	0.3	-0.4	-8%	1	-7.3	-1.1	-11	-13
CCCN(C(=O)C1=COCCO1)c1c(N)n(Cc2ccccc2)c(=O)[nH]c1=O	0.2	-3.5	-8%	1	-3.6	-1.8	0	-9
O=C(N/N=C/c1cccnc1)c1cccc(S(=O)(=O)Nc2cccc(Cl)c2)c1	-5.8	0.1	6%	-18	3.9	3.5	0	3
COc1ccc(-n2nc3cc(C)c(NC(=O)CC(C)C)cc3n2)cc1	·	·	5%	21	·	?	·	-10
COc1ccc2c(c1)c1nnc(SCC(=O)N3CCCCC3C)nc1n2C (stereo not given)	·	·	-5%	-14	·	-2.1	·	25
COc1ccc(-c2cc(-c3ccccc3)nc(=O)[nH]2)cc1	0.2	3.6	16%	-1	-16	2.8	5	0
O=C(CCCOc1ccccc1)Nc1ccc2c(c1)OCCO2	-0.1	0.9	-2%	10	·	0.4	·	-2
CCN(C(=O)COC(=O)/C=C/c1ccc(O)c(OC)c1)C1CCS(=O)(=O)C1 (stereo not given)	-0.1	-6.4	8%	-1	-2.4	0.9	-7	-1
CCN(CCCNC(=O)CCn1c(=O)[nH]c2ccccc2c1=O)c1cccc(C)c1	0.2	-1.2	1%	36	·	-1.4	-3	-6
CC1CCN(C(=O)c2[nH]cnc2C(=O)Nc2nccs2)CC1	-1.0	-8.1	·	·	-1.7	·	-3	·
Cc1ccc(NC2SC(=O)N(CC(=O)O)C2=O)cc1 (stereo not given)	0.4	-2.3	0%	-11	·	3.2	1	-15
Cc1nc2ccccc2c(=O)n1NC(=O)/C=C/c1ccc(Br)cc1	0.4	5.0	·	-2	-1.6	-1.8	1	7
CCOCC(=O)Nc1nc2ccc(OC)cc2s1	-10	1.8	74%	7	·	1.1	-7	-9
O=C(NCCN1CCCC1)c1ccc(Cn2c(=S)[nH]c3cc4c(cc3c2=O)OCO4)cc1	-0.6	5.2	-15%	0	·	-6.5	2	3
O=C(Nc1ccncc1)c1cc(S(=O)(=O)N2CCCC2)ccc1Cl	0.0	0.4	·	·	2.5	·	-9	·
O=C(COc1ccc(-n2cnnn2)cc1)Nc1cccc(Cl)c1Cl	0.1	-0.1	-2%	3	2.5	2.6	-1	2
COc1ccc(CCn2c(=N)c(C(=O)NCCN3CCOCC3)cc3c(=O)n4cccc(C)c4nc32)cc1OC	2.0	2.7	·	-8	-0.9	11	11	10
CCc1ccc(OCC(=O)N2CC(C(=O)OC)Oc3ccccc32)cc1 (stereo not given)	0.5	0.3	2%	2	-3.8	7.1	-15	-6
O=C(NCCN1CCN(c2ccccc2)CC1)c1cccc(Br)c1	·	-35	24%	4	2.7	-4.7	·	-17
CCn1ncc(C2C(C(=O)Nc3ccc(C)cn3)=C(C)NC3=C2C(=O)CCC3)c1C (stereo not given)	0.6	2.9	-8%	4	·	-2.4	1	2

A different layout for part of the listing above.
SMILES | Bfl-1 A1 inh | LANA-H2A inh | Vif TR-FRET | Calb FLC | MLL AF4-AF9 inh | RanGTP-Imp inh | Beta cell apopt | T cruzi inh
CCCN(C(=O)C1=COCCO1)c1c(N)n(Cc2ccccc2)c(=O)[nH]c1=O | 0.2 | -3.5 | -8% | 1 | -3.6 | -1.8 | 0 | -9
O=C(N/N=C/c1cccnc1)c1cccc(S(=O)(=O)Nc2cccc(Cl)c2)c1 | -5.8 | 0.1 | 6% | -18 | 3.9 | 3.5 | 0 | 3
COc1ccc(-n2nc3cc(C)c(NC(=O)CC(C)C)cc3n2)cc1 | · | · | 5% | 21 | · | ? | · | -10
COc1ccc2c(c1)c1nnc(SCC(=O)N3CCCCC3C)nc1n2C (stereo not given) | · | · | -5% | -14 | · | -2.1 | · | 25
COc1ccc(-c2cc(-c3ccccc3)nc(=O)[nH]2)cc1 | 0.2 | 3.6 | 16% | -1 | -16 | 2.8 | 5 | 0
O=C(CCCOc1ccccc1)Nc1ccc2c(c1)OCCO2 | -0.1 | 0.9 | -2% | 10 | · | 0.4 | · | -2
CCN(C(=O)COC(=O)/C=C/c1ccc(O)c(OC)c1)C1CCS(=O)(=O)C1 (stereo not given) | -0.1 | -6.4 | 8% | -1 | -2.4 | 0.9 | -7 | -1
CCN(CCCNC(=O)CCn1c(=O)[nH]c2ccccc2c1=O)c1cccc(C)c1 | 0.2 | -1.2 | 1% | 36 | · | -1.4 | -3 | -6
CC1CCN(C(=O)c2[nH]cnc2C(=O)Nc2nccs2)CC1 | -1.0 | -8.1 | · | · | -1.7 | · | -3 | ·
Cc1ccc(NC2SC(=O)N(CC(=O)O)C2=O)cc1 (stereo not given) | 0.4 | -2.3 | 0% | -11 | · | 3.2 | 1 | -15
Cc1nc2ccccc2c(=O)n1NC(=O)/C=C/c1ccc(Br)cc1 | 0.4 | 5.0 | · | -2 | -1.6 | -1.8 | 1 | 7
CCOCC(=O)Nc1nc2ccc(OC)cc2s1 | -10 | 1.8 | 74% | 7 | · | 1.1 | -7 | -9
O=C(NCCN1CCCC1)c1ccc(Cn2c(=S)[nH]c3cc4c(cc3c2=O)OCO4)cc1 | -0.6 | 5.2 | -15% | 0 | · | -6.5 | 2 | 3

Continued:
SMILES	Bfl-1 A1 inh	LANA-H2A inh	Vif TR-FRET	Calb FLC	MLL AF4-AF9 inh	RanGTP-Imp inh	Beta cell apopt	T cruzi inh
Cc1ccc(S(=O)(=O)N(CCC#N)CCN2CCCC2)cc1	1.2	0.5	4%	1	·	-2.8	-4	-1
O=S1(=O)CC(O)C(NCc2cccnc2)C1 (stereo not given)	0.3	5.3	3%	6	·	-2.4	-2	-8
C=CCN1C(=O)c2ccc(C(=O)NCC(=O)Nc3c(C)cc(C)cc3C)cc2C1=O	0.1	·	9%	·	-6.3	·	-2	·
COCCCNC(=O)c1c[nH]c2ccc(S(=O)(=O)N3CCC4(CC3)OCCO4)cc2c1=O	2.4	·	8%	-4	-1.8	5.9	-1	0
CSc1ncnc2c1ccn2CC(=O)Nc1ccc(C)c(C)c1	-1.1	3.0	·	·	0.4	·	0	·
O=C(NNC(=O)C1CCN(Cc2ccc(F)cc2Cl)CC1)Nc1ccc([N+](=O)[O-])cc1	0.3	-4.8	1%	5	2.5	4.2	0	43
O=C(NCC1CCCCC1)C1CCN(C(=O)NC2CCCCC2)CC1	1.1	-0.3	0%	-15	·	-0.8	·	-1
CCSC1=N/C(=C\c2ccc(C)s2)C(=O)S1	0.5	-5.5	·	35	·	?	-12	3
N=c1n(CCN2CCCCC2)c2ccccc2n1CC(O)c1ccco1 (stereo not given)	0.6	-0.8	5%	-1	6.3	3.4	4	9
N#CCC(=O)Nc1ccc(C(=O)OCC(=O)Nc2cccc(C(F)(F)F)c2)cc1	-0.6	-2.3	-1%	0	-6.5	0.5	-5	-4
O=C(Nc1ccccc1Cc1ccccc1)c1ccncc1	-0.1	3.2	3%	-11	-1.2	3.0	-1	59*
CC1Cc2ccccc2N1C(=O)CSc1nnc(C2CC2)n1C (stereo not given)	-0.4	5.6	7%	-12	-1.5	0.3	·	-16
Cc1ccc(S(=O)(=O)N2CCN(c3ccc([N+](=O)[O-])c(Sc4nncn4C)c3)CC2)cc1	0.4	-4.0	0%	-3	·	1.2	0	11
COc1ccc(OC)c(S(=O)(=O)NC(C)(C)C)c1	-0.1	2.9	9%	7	·	2.0	·	-19
Cn1cnnc1SCc1ccc(C(=O)n2ncc(C#N)c2N)cc1	0.0	5.1	2%	-21	·	-1.6	-1	-2
O=C(c1ccc(N2CCCC2=O)cc1)N1CCN(c2ccccc2Cl)CC1	-0.4	1.1	·	·	-1.9	·	-18	·
CC1CCC(NC(=O)C2CCN(S(=O)(=O)c3ccc4nc5c(c(C(=O)O)c4c3)CC(C)CC5)CC2)CC1 (stereo not given)	0.3	1.8	·	-3	-1.5	1.5	1	7
CCCCN(C)C(=O)c1cc2cc3ccc(OC)cc3nc2o1	-7.3	0.6	-8%	4	2.7	3.2	-1	9
O=C(Nc1nccs1)c1ccc2ccccc2n1	-5.1	-4.0	·	-2	-7.0	5.2	6	-14
O=C(CN1C(=O)S/C(=C/C=C/c2ccccc2)C1=O)Nc1ccc(C(=O)O)cc1	-2.5	0.2	·	-5	1.8	-3.1	0	-5
CC1Oc2ccccc2N(CC(=O)N2CCc3ccccc32)C1=O (stereo not given)	0.1	-3.6	17%	-3	·	-7.7	1	·
COc1cccc(N=c2oc3c(C)ncc(CO)c3cc2C(=O)Nc2ccccc2OC)c1	·	·	3%	17	·	-0.5	·	-7
O=C(COC(=O)CCC(=O)c1cccs1)Nc1ccc(F)c(F)c1F	0.2	-1.0	·	·	0.7	·	0	·
O=C(CN1CCOCC1)Nc1c(-c2ccccc2)c2cc(Br)ccc2[nH]c1=O	0.4	0.2	4%&0%	5	·	-3.3	-9	-13
COc1ccccc1NC(=O)CSc1nc2[nH]ncc2c(=O)[nH]1	0.7	-2.7	-7%	-10	0.3	1.0	·	-7
SMILES	Bfl-1 A1 inh	LANA-H2A inh	Vif TR-FRET	Calb FLC	MLL AF4-AF9 inh	RanGTP-Imp inh	Beta cell apopt	T cruzi inh
O=C(COC(=O)CCc1ccccc1)Nc1cc([N+](=O)[O-])ccc1F	-1.0	1.3	·	-4	·	1.5	-1	1
O=C(O)c1cc(C(=O)C2CCCCC2)c[nH]1	-0.5	-0.7	6%	-3	-3.4	-0.5	-9	-15
COc1ccc(C(=O)n2nc(C)cc2C)cc1Br	0.0	1.1	23%	3	·	2.5	-5	-3
COc1cc(C2N(C)C(=O)c3ccccc3N2C)ccc1O (stereo not given)	0.1	-3.0	·	20	-2.6	-8.9	2	8
COC(=O)C1CCN(C(=O)c2ccc3oc(Cc4ccc(Cl)cc4)nc3c2)CC1	-0.7	-1.3	·	-1	-1.3	?	-5	1
Cc1ccc(S(=O)(=O)NNC(=O)CCCCC(=O)NNS(=O)(=O)c2ccc(C)cc2)cc1	-1.1	7.7*	0%	-8	-0.6	-0.7	-8	-11
COc1ccc(C(=O)N/C(=C\c2cn(S(=O)(=O)N(C)C)c3ccccc23)C(=O)NCCN2CCOCC2)cc1OC	1.4	0.4	·	8	5.9	2.2	0	-15
O=C(CNC(=O)c1ccc2c(c1)OCO2)N/N=C/c1cccc([N+](=O)[O-])c1	0.2	9.4	-4%	·	-2.2	·	-8	8
